# Compound activity as filed in PubChem.
# LANA-nucl inh: inhibitors of KSHV LANA binding to nucleosomes | z-score (no concentration beside the values) | 51,000 compounds, 0.3% hits | FITC-LANA1-23 / chicken nucleosome fluorescence polarization; stronger effect = lower value;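 active = both repeat wells score below -2 in polarization z-score versus plate sample wells, excluding overly bright wells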;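 also: 100 nL library stock added to about 30 µL; numbers are from one replicate; some results filed as inactive read as strong as hits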
#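 Material: Purified chicken nucleosomes with FITC-labelled LANA N-terminal peptide (1-23) | Reagent: 50 nM FITC-LANA1-23 probe | Medium: TEN-BT buffer, pH 7.5 | Times: 10–45 min incubation at room temperature | Detection: Fluorescence polarization | Replication: Duplicates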
# BasE inh: BasE siderophore biosynthesis inhibition. inhibition, % (test concentration not listed). 84,000 compounds, 0.1% hits. purified BasE, fluorescence polarization binding displacement. AID 485350;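 active = both replicates above 25% with normal brightness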;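 also: 0% = negative plate control signal and 100% = positive plate control signal; stock transfer was 100 nL into about 30 µL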
# * hit, by the source's call; . = not tested or not shown. Some of the compounds tested; count on the stated rates, not on these rows.
# Values run as follows: LANA-nucl inh	BasE inh
- CCOC(=O)N1CCC(Nc2cc(C)c(C#N)c3nc4ccccc4n23)CC1
  0.908	11.3
- CCOc1ccc(N=CC2=C(O)CNC2=O)cc1
  .	0.9
- CCCCSc1ncn[nH]1
  -0.129	5.2
- CCOC(=O)c1cc(-c2ccc3c(c2)OCO3)nn1-c1cccc(C(=O)O)c1
  .	1.5
- Cc1ccc(C(=O)Cc2cc3ccccc3oc2=O)cc1
  .	2.2
- CCn1cc(C(=O)c2ccccc2O)cc1-c1nc2cc(Cl)ccc2c(=O)[nH]1
  .	1.2
- CC1CCCC(C)N1C(=O)COC(=O)c1cc(=O)[nH]c2ccccc12 (configuration not stated)
  .	-0.4
- O=C(Nc1cccc(Br)c1)c1cccc2c1C(=O)c1ccccc1-2
  .	1.6
- Cc1cc(C)c2c(n1)sc1c(=O)n(CC(=O)O)cnc12
  .	7.6
- COCCCCCCCCCCCC(=O)O
  -0.0475	3.2
- Cc1ccccc1C(=O)NC(=S)Nc1ccc(-c2nc3ccccc3o2)cc1
  .	1.7
- CCc1ccc(-c2nn(Cc3ccccc3)cc2C(=O)N2CCN(CCN3CCCC3)CC2)cc1
  .	-2.9
- N#CCC(=O)NC(=O)NC12CC3CC(CC(C3)C1)C2
  .	-2.1
- O=C(O)CCCN1C(=O)C(=O)/C(=C(/O)c2ccccc2)C1/C=C/c1ccccc1 (configuration not stated)
  0.169	1.3
- O=C(O)/C=C/C(=O)Nc1ccc(N2CCCCC2)cc1
  .	1.0
- Cc1cc(C(=O)CSc2nccn2Cc2ccccc2)c(C)n1-c1ccc(S(N)(=O)=O)cc1
  .	-3.2
- O=C(NC1CCCC1)C(c1ccccn1)N(C(=O)c1ccc2c(c1)OCCO2)c1ccccc1 (configuration not stated)
  0.311	1.1
- COc1cc2c(cc1OC)C(c1cc3cc4c(cc3[nH]c1=O)OCO4)N(C(=O)c1ccco1)CC2 (configuration not stated)
  0.661	-1.6
- COc1oc(-c2ccccc2)nc1C(F)(F)F
  1.02	-1.4
- COc1ccc(-c2cc(-c3ccccc3)c(-c3ccccc3)nn2)cc1CN1CCOCC1
  .	1.7

# Entries above with sulfur, in the order listed:
# Values run as follows: LANA-nucl inh	BasE inh
- CCCCSc1ncn[nH]1
  -0.129	5.2
- Cc1cc(C)c2c(n1)sc1c(=O)n(CC(=O)O)cnc12
  .	7.6
- Cc1ccccc1C(=O)NC(=S)Nc1ccc(-c2nc3ccccc3o2)cc1
  .	1.7
- Cc1cc(C(=O)CSc2nccn2Cc2ccccc2)c(C)n1-c1ccc(S(N)(=O)=O)cc1
  .	-3.2

# (list continues)
# Values run as follows: LANA-nucl inh	BasE inh
- Cc1sc2nc(CC(=O)NN)[nH]c(=O)c2c1C
  .	0.5
- COc1ccccc1NC(=O)CN(Cc1ccco1)C(=O)c1ccc(OC)c(OC)c1
  .	-2.1
- COc1ccc(-c2ccc(CNC3CC3)o2)cc1Cl
  -0.796	0.1
- CCCCNC(=O)c1cnn(-c2cccc(F)c2)c1-n1cccc1
  .	2.9
- NS(=O)(=O)c1ccc(CNC(=O)c2ccc(=O)[nH]c2)cc1
  .	0.4
- O=C1N/C(=C\c2ccccc2Cl)C(=O)N1Cc1ccc(Cl)cc1
  .	0.2
- O=C1c2ccccc2C(=O)N1CC1OCc2ccccc2CO1
  .	-0.6
- COc1ccc(/C=C2\SC(=S)N(CCCCCC(=O)N3CCN(C)CC3)C2=O)cc1
  0.121	-1.1
- CCC(C)c1ccc(Oc2ccc(S(=O)(=O)N3CCCCC3)cn2)cc1 (configuration not stated)
  .	-2.4
- CCCCNC(=O)c1cnc2n(c1=O)CCS2
  -0.614	1.2
- O=c1[nH]c(CN2CCN(Cc3ccccc3)CC2)nc2sc3c(c12)CCC3
  .	-5.6
- O=C(Cn1cnc2ccccc21)OCc1ccc(Br)cc1
  .	26.7*
- CC1=CC(=O)C(C(=O)/C=C/c2cn(-c3ccccc3)nc2-c2cc3ccccc3o2)C(=O)O1 (configuration not stated)
  .	-4.1
- O=C(Cn1cnc(S(=O)(=O)N2CCCCC2)c1)Nc1ccccc1
  -0.0535	-1.4
- O=P(C1=C(N2CCOCC2)/C(=C\c2ccccc2)CC1)(N1CCOCC1)N1CCOCC1
  .	2.1
- Cc1cccc(NC(=O)Cn2cnc3c(oc4ccccc43)c2=O)c1C
  -0.626	-0.3
- CSc1ncccc1C(=O)OCc1ccccc1F
  .	0.7
- Cc1cc(I)c[nH]c1=O
  -1.48	0.9
- O=c1[nH]cnc2c1oc1ccccc12
  .	-0.2
- COc1ccc(C2CC(=O)NC(NC(=O)CN3C(=O)c4ccccc4C3=O)=N2)cc1 (configuration not stated)
  -0.156	0.4
- CCn1c(-c2ccc3c(c2)OCCO3)cnc1SCC(=O)c1ccc(CNC(C)=O)s1
  .	3.1
- N#CCCCSc1nnc(Cc2ccc3c(c2)OCO3)o1
  -0.019	4.4
- O=C1C=CC2(C=C1)CC1(CCCCC1)N=C2SCc1ccccc1
  .	-0.2
- Cc1[nH]c(C(=O)NN)c(C)c1C(=O)NC1CCCCC1
  0.131	1.1
- CCN(CC)C(=O)CSc1nc2c(c(=O)n(C)c(=O)n2C)n1CC
  .	-0.5
- O=C(NCc1cccnc1)C1c2ccccc2C(=O)N1C1CCCCCCC1 (configuration not stated)
  0.181	2.0
- CC(C)CC(=O)Nc1sc2c(c1C#N)CCCCC2
  -0.064	1.5
- CC(C)=NNC(=O)CN(C1=NS(=O)(=O)c2ccccc21)c1ccccc1
  1.2	-1.2
- COC(=O)CCn1c(=O)c2cccn2c2ccc(F)cc21
  0.756	-2.8
- CCOC(=O)c1sc(/N=C/N(C)C)nc1C
  .	0.3
- Cc1cc(C)c(C#N)c(SCc2nc(-c3ccc(OC(F)(F)F)cc3)no2)n1
  .	1.5
- N#CC1=C(N)C(C#N)(C#N)C2(C(=O)Nc3ccccc32)C2CCCC=C12 (configuration not stated)
  -0.362	-2.2
- COc1ccccc1N1CCN(C(=O)c2ccccc2C(F)(F)F)CC1
  -0.575	2.3
- O=S(=O)(c1ccccc1C(F)(F)F)N1CCN(c2ccccc2O)CC1
  .	0.6
- Cc1ccc(Cn2c(=O)c3ccccc3n3c(SC4CCOC4=O)nnc23)cc1 (configuration not stated)
  .	0.6
- CCOc1cc(/C=C2\SC(=S)N(CCCC(=O)O)C2=O)ccc1O
  0.999	-7.4
- CCOC(=O)CSc1nc(-c2cccnc2)nn1C(=O)c1ccccc1
  -0.424	-0.9
- COc1cccc(CC(=O)Nn2c(C)nc3ccccc3c2=O)c1
  .	-0.7
- O=C(c1ccncc1)N(Cc1cc2ccccc2[nH]c1=O)c1ccccc1
  -1.03	0.8
- O=C1N=c2ccccc2=C1c1sc(=O)[nH]c1O
  -0.142	4.0
- CC(C)OC(=O)c1cc(=O)[nH]c2ccccc12
  0.0695	-2.0
- CC(C(=O)NC1CCc2ccccc21)n1nc2ccccc2n1 (configuration not stated)
  -0.898	2.2
- N/C(=N\C(=O)N1CCOCC1)c1ccccc1OC(F)(F)F
  -0.929	-1.5
- Clc1ccc(CCNc2ncnc3onc(-c4ccc(Cl)cc4)c23)cc1
  0.913	-0.9
- CCc1ccc(-c2nc(CN3CCC(C(=O)NCc4ccccc4Cl)CC3)c(C)o2)cc1
  0.635	-5.6
- CC1CCC2(CC1)Nc1ccccc1S2 (configuration not stated)
  0.068	0.3
- Cc1ccc2cc(C(F)(F)F)ccc2n1
  -0.24	-0.2
- Nc1nc(-c2ccncc2)ncc1S(=O)(=O)Cc1ccco1
  .	-0.5
- Cc1ccc(-c2csc(NC(=O)/C=C/c3ccco3)c2C(=O)O)cc1
  .	4.2
- CCS(=O)(=O)c1ccc2oc(SCc3nc4ccccc4s3)nc2c1
  .	0.2
- O=C(/C=C/c1ccco1)N(Cc1nnc(-c2ccccc2Cl)o1)C1CC1
  .	-1.3
- Cc1oc2c(F)c(F)c(F)c(F)c2c1C(=O)Oc1ccc(Br)cc1
  0.0255	-0.1
- CCCc1nc(SC)ncc1C(=O)NCc1ccc(F)cc1
  2.25	-0.8
- O=C1c2ccccc2C(=O)N1CCC(=O)N(C1CCCCC1)C1CCCCC1
  .	2.0
- S=c1[nH]nc(CSCc2cccc3ccccc23)n1C1CCCCC1
  .	-3.3
- CCN(CC)CCC(=O)N1c2ccccc2CCc2ccc(NC(=O)OC(C)C)cc21
  -0.262	-3.7
- Clc1ccc2c(-n3nnc4ccccc43)ccnc2c1
  .	0.5
- Nc1c2c(nc3ccccc13)N(Cc1ccccc1)CC2
  .	-7.4
- CCc1cc(=O)oc2c(C)c3occ(C)c3cc12
  1.35	0.6
- COc1ccc(-n2c(-c3cccc(OC)c3)csc2=NCc2cccnc2)cc1
  .	1.3

# Further structures
# Values run as follows: LANA-nucl inh	BasE inh
- O=C(COc1ccc2c(c1)OCO2)NC12CC3CC(CC(C3)C1)C2
  .	1.0
- c1csc(-c2csc3nc(CN4CCOCC4)nc(NC4CC4)c23)c1
  .	0.1
- Cc1c(Cl)cnc(NC(=O)COC(=O)COc2ccc3c4c(c(=O)oc3c2)CCC4)c1Cl
  .	-4.1
- O=C(OCC(=O)N1CCc2ccccc2C1)c1sc2sccc2c1Cl
  .	-1.5
- CCOc1cccc2cc(C(N)=O)c(=NCc3ccccc3)oc12
  .	-3.9
- O=C(CCSc1nc(-c2ccco2)cc(C(F)(F)F)n1)NCc1ccco1
  -0.726	2.8
- Cn1cc(/C(N)=N/O)c(=O)n(Cc2ccccc2)c1=O
  .	2.0
- Cc1ccc(S(=O)(=O)C(CNC(=O)c2c(F)cccc2F)c2ccco2)cc1 (configuration not stated)
  -1.54	0.3
- CC(=O)Nc1ccc(S(=O)(=O)N2CCCC2c2ccc3c(c2)OCCCO3)cc1 (configuration not stated)
  .	-1.6
- C=CCn1c(/N=C/c2ccc(OC)cc2)nc2ccccc21
  -0.0505	-1.3
- Oc1ccccc1C1CCCCC1c1ccccc1 (configuration not stated)
  .	2.6
- Cc1ccc(-n2c(C)nc3cc(C(=O)O)ccc32)c(C)c1
  -1.05	-4.2
- O=C(/C=C/c1ccc(Cl)cc1)Nc1nccs1
  .	-0.9
- O=C1NC(=O)NC(=C/C=C/c2ccc(-c3ccc(Cl)cc3Cl)o2)N1
  -0.361	4.3
- O=C(Nc1c(C(=O)N2CCOCC2)cnn1-c1ccccc1)c1ccco1
  -0.918	-0.5
- COC(=O)N/N=C/c1cc(C)n(-c2ccccc2)c1C
  -0.426	1.5
- O=C(Nc1ccc(C(=O)NCCCN2CCCCC2)cc1)C1=CSCCO1
  -0.926	-6.1
- COc1ccc(C(=O)c2oc3ccccc3c2N)cc1
  0.821	1.1
- Nc1nnc(CCN2C(=O)CSC2=O)s1
  -0.122	0.6
- Cc1c(Cl)cc(F)cc1S(=O)(=O)N1CC=C(c2ccccc2)CC1
  0.181	.

# One compound at a time, from the list above.
# `O=C(OCC(=O)N1CCc2ccccc2C1)c1sc2sccc2c1Cl` as listed: LANA-nucl inh = .; BasE inh = -1.5
# `CCCCNC(=O)c1cnn(-c2cccc(F)c2)c1-n1cccc1` as listed: LANA-nucl inh = .; BasE inh = 2.9

# (next part)
# Values run as follows: LANA-nucl inh	BasE inh
- COc1ccccc1CCn1cc(C#N)c(=O)[nH]c1=O
  .	1.4
- CCC(C)NC(=O)c1nn(-c2ccc(OC)cc2)c(=O)c2c1c1ccccc1n2C (configuration not stated)
  -0.771	3.2
- NC(=O)C1CCN(C(=O)c2ccc3c(=O)n4c(nc3c2)CCCC4)CC1
  -1.16	2.9
- Cc1ccc(S(=O)(=O)N2CCCC(NC(=O)N3CCCCC3C)C2)cc1 (configuration not stated)
  -0.336	-0.4
- Cc1ccc2ncnc(NC(CO)C(=O)O)c2c1 (configuration not stated)
  0.207	-0.6
- Cc1ccc(Cl)cc1N1CCN(CCCNC(=O)CN2C(=O)CSc3ncccc32)CC1
  -0.277	-1.0
- Cc1cc(C(=O)OC(C)C(=O)Nc2cccc(C(F)(F)F)c2)c(C)o1 (configuration not stated)
  .	0.2
- Cc1ccc(C)c(S(=O)(=O)c2n[nH]n3c2nc(=O)c2sccc23)c1
  0.25	4.3
- CC1CCOC2(CCC(C(C)(C)C)CC2)O1 (configuration not stated)
  1.89	-3.3
- CNc1ccc(OC(F)F)cc1C(=O)c1ccccc1
  -0.943	0.3
- NC(=S)c1cccs1
  .	2.2
- CCOc1ccc2c(c1)s/c(=N\C(=S)NC(=O)CN1C(=O)CCC1=O)n2C
  -0.194	-1.4
- CN1c2ccccc2C(=O)/C(=N\Nc2ccccc2Cl)S1(=O)=O
  -2.39*	-1.3
- Cc1ccccc1NS(=O)(=O)c1ccc(-n2cnnn2)cc1
  -0.779	0.0
- CC(=O)Nc1ccc(NC(=O)[C@@H]2CCCC[C@@H]2C(=O)O)cc1
  .	-1.7
- CC(C)(C)c1cc(CN)c(C(=O)O)o1
  -0.315	-0.5
- CC(CS(=O)(=O)c1ccc2c(c1)NC(=O)C(C)S2)C(=O)NC1CCCCCC1 (configuration not stated)
  .	1.4
- Cc1ccc(CC(C#N)Sc2nnc3n2CCCCC3)cc1 (configuration not stated)
  .	-2.1
- CCc1ccnc(NC(=O)CC2(CC(=O)O)CCCCC2)c1
  .	0.1
- CC(C)(C)NC(=O)Cc1ccccc1
  0.099	1.6
- COC(=O)COc1ccc(S(=O)(=O)N2CCN(c3ccccc3F)CC2)cc1Cl
  -0.435	-1.9
- CCCCN1C(=O)CCC(C(=O)O)C1c1ccccc1OC (configuration not stated)
  .	1.6
- CC1(C)CC(=O)CC(=Nc2ccccc2N)C1
  .	1.7
- Cc1cc(C(F)(F)F)n2nc(C(N)=O)cc2n1
  -0.004	-2.5
- Nc1nc(N2CCCCC2)ncc1F
  -0.924	1.5
